From PubChem
Ecoli rRNA inh: inhibitors of bacterial rRNA selective over humanized ribosomes. 1.6% of 350,000 active. GFP signal change (wild-type ribosome), % (test concentration not listed). E. coli WT GFP vs humanized-ribosome RFP mutants, fluorescence, 24 h; stronger effect = lower value; DMSO median 0, no signal -100;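 active means significant combined selectivity score with lowered wild-type GFP, culture density cut under 30%, mutant RFP and density less affected; inactive means any of these conditions unmet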; further: one replicate is shown; some compounds called inactive have numbers as strong as hits
Ecoli rRNA inh OD600: second read-out of Ecoli rRNA inh, no call of its own (marks repeat the call); OD600 change, %; measured here: OD600 growth;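 optical density of the mix in the first replicate; 0 = DMSO median and -100 = no signal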
Ecoli rRNA inh RFP: further read-out of Ecoli rRNA inh, marked with its call; RFP signal change, %; measured here: RFP humanized mutant strains;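 first replicate; 0 = DMSO median and -100 = no signal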
* = called active by the depositor; & = joins results of further samples.

The first 3 compounds, ahead of the listing:
SMILES | Ecoli rRNA inh | Ecoli rRNA inh OD600 | Ecoli rRNA inh RFP
COC(=O)C[C@H]1C[C@H]2c3cc(NC(=O)Nc4ccc(OC)cc4)ccc3O[C@H]2[C@H](CO)O1 | -4.9 | 9.9 | 3.8
C/C=C/c1ccc(C2[C@@H]3CN(C(=O)Nc4ccccc4F)C[C@H]2N3)cc1 (stereo partly specified) | 5.0&2.2 | 7.0&14.2 | 0.0&-0.4
O=C(c1ccncc1)N1CC2(C1)[C@@H](c1ccccc1)[C@H](CO)N2C(=O)CC1CC1 | 2.5 | 12.2 | 0.1

The whole of this part, from the start:
SMILES | Ecoli rRNA inh | Ecoli rRNA inh OD600 | Ecoli rRNA inh RFP
COC(=O)C[C@H]1C[C@H]2c3cc(NC(=O)Nc4ccc(OC)cc4)ccc3O[C@H]2[C@H](CO)O1 | -4.9 | 9.9 | 3.8
C/C=C/c1ccc(C2[C@@H]3CN(C(=O)Nc4ccccc4F)C[C@H]2N3)cc1 (stereo partly specified) | 5.0&2.2 | 7.0&14.2 | 0.0&-0.4
O=C(c1ccncc1)N1CC2(C1)[C@@H](c1ccccc1)[C@H](CO)N2C(=O)CC1CC1 | 2.5 | 12.2 | 0.1
C[C@@H]1CN([C@H](C)CO)C(=O)c2cc(NC(=O)Cn3cnnn3)ccc2O[C@@H]1CN(C)Cc1ccc(-c2ccccc2)cc1 | 0.9 | -5.8 | 7.1
Cc1noc(C)c1NC(=O)N(C)C[C@H]1Oc2ccc(NS(=O)(=O)c3cn(C)cn3)cc2C(=O)N([C@H](C)CO)C[C@H]1C | 4.6 | 7.9 | -0.4
O=S1(=O)CC(N2CCN(CCO)CC2)CN1Cc1cn(Cc2cccc(C(F)(F)F)c2)nn1 (stereo unspecified) | 18.9 | 9.8 | 2.6
Cc1noc(C)c1NC(=O)Nc1cccc2c1O[C@@H](CN(C)C(=O)NC(C)C)[C@@H](C)CN([C@H](C)CO)C2=O | 0.1 | 0.5 | -2.3
COc1cccc(CNC(=O)C[C@@H]2CC[C@@H](NC(=O)C3CCOCC3)[C@@H](CO)O2)c1 | 4.3 | 8.5 | -1.2
COCC(=O)Nc1ccc2c(c1)[C@H]1C[C@H](CC(=O)OC)O[C@@H](CO)[C@H]1O2 | 1.2 | 1.3 | -1.5
Cc1ccc(S(=O)(=O)Nc2ccc3c(c2)C(=O)N([C@H](C)CO)C[C@H](C)[C@H](CN(C)C(=O)Nc2cccc4ccccc24)OCCCC[C@H](C)O3)cc1 | -1.4 | 12.2 | -0.3
C[C@@H]1CN([C@H](C)CO)S(=O)(=O)c2ccc(C#CC3CC3)cc2O[C@H]1CN(C)C(=O)c1cccnc1 | -3.9 | -18.0 | 3.3
CNC[C@H]1OCCCC[C@H](C)Oc2ccc(NC(=O)Nc3cccc4ccccc34)cc2C(=O)N([C@@H](C)CO)C[C@@H]1C | 5.5 | -4.9 | -1.8
CN(C)C(=O)C[C@H]1CC[C@@H]2[C@@H](COc3ccc(NC(=O)c4ccc(F)c(F)c4)cc3C(=O)N2C)O1 | -2.9 | -3.0 | -0.6
CCCNC(=O)N(C)C[C@H]1Oc2ncc(C#C[C@H](C)O)cc2C(=O)N([C@H](C)CO)C[C@@H]1C | 0.0 | 4.5 | -1.3
C[C@H]1CN([C@@H](C)CO)C(=O)Cc2cc(NC(=O)C3CC3)ccc2O[C@@H]1CN(C)S(=O)(=O)c1ccc(F)cc1 | 1.4 | 2.0 | -0.4
O=C(C[C@H]1CC[C@H](NC(=O)c2ccc(F)cc2)[C@@H](CO)O1)NCc1ccncn1 | 3.3 | 0.5 | -1.2
C[C@@H]1CCCCO[C@@H](CN(C)Cc2ccncc2)[C@@H](C)CN([C@@H](C)CO)C(=O)c2cc(NS(=O)(=O)c3cn(C)cn3)ccc2O1 | 4.6 | -0.7 | -4.0
Cc1ccc(S(=O)(=O)Nc2ccc3c(c2)C(=O)N([C@@H](C)CO)C[C@H](C)[C@H](CN(C)Cc2ccncc2)O3)cc1 | -1.2 | 7.1 | -1.6
CCC(=O)N(CC)C[C@H]1[C@H](c2ccccc2)[C@@H](CO)N1C(C)=O | 3.2 | 6.8 | -0.5
COc1ccccc1-c1ccc2c(c1)[C@H]1[C@H](CCN1C(=O)C1CCC1)[C@H](CO)N2 | -0.6 | 6.6 | 5.9
C[C@@H](O)C#Cc1ccc([C@H]2[C@@H](CO)N3CCCCN(C(=O)c4cccc(F)c4)C[C@@H]23)cc1 | 1.0 | 9.7 | -0.2
N#C[C@H]1[C@H](c2ccc(-c3cccnc3)cc2)[C@H](CO)N1C(=O)C1CC1 | -1.3 | -2.7 | 0.4
O=C(c1ccccc1)N1CC2(C1)[C@H](c1ccccc1)[C@@H](CO)N2CC1CC1 | -1.0 | -1.4 | -3.7
C[C@H]1CN([C@@H](C)CO)C(=O)c2cccc(NC(=O)Nc3cccc4ccccc34)c2O[C@H]1CN(C)Cc1ccc(C(F)(F)F)cc1 | 0.5 | 4.0 | 2.9
CCC(c1nnnn1-c1ccc2c(c1)OCCO2)N1CCN(CC)CC1 (stereo unspecified) | -2.3 | 13.1 | -5.1
CN1CCN(C(=O)C[C@H]2CC[C@@H]3[C@H](COC[C@H](O)CN3C(=O)Cc3ccccc3)O2)CC1 | -0.1 | -0.3 | -5.6
O=C(c1ccncc1)N1CC2(C1)[C@H](c1ccccc1)[C@@H](CO)N2CC1CC1 | 1.1 | 9.5 | -1.8
C[C@H](CO)N1C[C@H](C)[C@H](CN(C)Cc2ccncc2)OCCCC[C@H](C)Oc2ccc(NC(=O)Nc3ccc(C(F)(F)F)cc3)cc2C1=O | -1.9 | -13.3 | 6.3
O=C(C[C@@H]1C=C[C@@H](NC(=O)Nc2ccc(F)cc2)[C@H](CO)O1)NCc1cccc(F)c1 | -0.2 | -2.8 | -0.1
CCCC#Cc1ccc([C@H]2[C@H]3CN(S(=O)(=O)CC)CCCCN3[C@H]2CO)cc1 | 2.8 | 1.9 | 2.1
C[C@@H]1CN([C@@H](C)CO)C(=O)Cc2cc(NC(=O)Nc3ccc(C(F)(F)F)cc3)ccc2O[C@H]1CN(C)S(=O)(=O)c1cn(C)cn1 | -3.4 | -8.3 | 7.0
C[C@H](CO)N1C[C@H](C)[C@@H](CN(C)Cc2ccncc2)Oc2c(NC(=O)Nc3ccc(F)cc3)cccc2C1=O | -2.6 | 0.3 | -1.0
CC(C)C(=O)Nc1ccc2c(c1)C(=O)N(C)[C@@H]1CC[C@@H](CC(=O)N[C@@H](C)c3ccccc3)O[C@@H]1CO2 | 6.0 | 5.1 | -0.3
COc1ccc(NC(=O)C2CCCN2S(=O)(=O)c2ccc3c(c2)C(C)(C)C(=O)N3C)cc1 (stereo unspecified) | 4.3 | 7.5 | 0.3
C[C@@H]1CN([C@H](C)CO)C(=O)c2cc(N(C)C)ccc2O[C@@H](C)CCCCO[C@@H]1CN(C)C(=O)NC1CCCCC1 | -0.3 | 1.5 | -1.3
CCCNC(=O)N(C)C[C@H]1Oc2cc(C#C[C@H](C)O)ccc2S(=O)(=O)N([C@@H](C)CO)C[C@H]1C | 3.4 | 15.4 | -0.8
CO[C@@H]1CN(C)C(=O)c2cc(NS(=O)(=O)c3ccccc3C)ccc2OC[C@@H](C)N(S(=O)(=O)c2ccccc2)C[C@H]1C | -7.8 | -1.8 | -0.3
C[C@H]1CN(C)C(=O)c2cc([N+](=O)[O-])ccc2O[C@@H]1CN(C)C(=O)OC(C)(C)C | -2.2 | 7.4 | -0.1
CCCNC(=O)N1CC2(C1)CN(C(=O)CC)[C@@H](CO)c1[nH]c3cc(OC)ccc3c12 | 2.6 | 10.6 | -1.8
CCCN(C)C[C@@H]1Oc2ncc(C#CC3CC3)cc2C(=O)N([C@@H](C)CO)C[C@@H]1C | 1.2 | 9.9 | -0.3
O=C(C[C@H]1CC[C@@H]2[C@H](COC[C@@H](O)CN2CCc2ccccc2)O1)NCCCN1CCOCC1 | 5.5 | 26.2 | 0.0
CCCN(C)C[C@H]1Oc2ncc(-c3cccc(C(=O)N(C)C)c3)cc2C(=O)N([C@@H](C)CO)C[C@H]1C | 8.6 | 7.7 | 0.3
CC(=O)NC(c1cccc(F)c1)c1nc(-c2ccc(C)c(C)c2)cs1 (stereo unspecified) | 8.6 | -2.4 | 0.1
COc1ccc(S(=O)(=O)N(C)C[C@@H]2Oc3c(NC(=O)NC4CCCCC4)cccc3C(=O)N([C@@H](C)CO)C[C@@H]2C)cc1 | -5.9 | -1.1 | 0.4
C[C@@H]1CC=CC[C@H](c2ccccc2)NC(=O)[C@@H](Cc2ccccc2)N(C)C(=O)c2ccccc2O1 (mixture of isomers) | -4.5 | 0.1 | 3.5
CC(C)NC(=O)Nc1ccc2c(c1)C(=O)N([C@H](C)CO)C[C@H](C)[C@@H](CN(C)CC1CCCCC1)OCCCC[C@@H](C)O2 | 1.8 | 6.1 | 0.4
C[C@@H]1CN([C@@H](C)CO)C(=O)CCCn2nncc2CO[C@H]1CN(C)C(=O)Nc1cccc(F)c1 | -3.8 | -3.3 | 0.4
Cn1cnc(S(=O)(=O)N2CCCCN3[C@H](CO)[C@H](c4ccc(C#CC5CCCC5)cc4)[C@@H]3C2)c1 | -12.2 | -45.9 | 11.6
C[C@H](CO)N1C[C@H](C)[C@H](CN(C)C(=O)Nc2ccccc2)Oc2ncc(C#CCN(C)C)cc2C1=O | 1.0 | -2.1 | -0.4
C[C@@H]1CCCCO[C@H](CN(C)Cc2ccc(C(=O)O)cc2)[C@H](C)CN([C@@H](C)CO)C(=O)c2cc(NS(=O)(=O)c3ccccc3)ccc2O1 | 0.5 | -2.4 | -2.7

Entries of single compounds from above.
Listed for CCCN(C)C[C@H]1Oc2ncc(-c3cccc(C(=O)N(C)C)c3)cc2C(=O)N([C@@H](C)CO)C[C@H]1C → Ecoli rRNA inh = 8.6; Ecoli rRNA inh OD600 = 7.7; Ecoli rRNA inh RFP = 0.3
Listed for C[C@@H]1CC=CC[C@H](c2ccccc2)NC(=O)[C@@H](Cc2ccccc2)N(C)C(=O)c2ccccc2O1 (mixture of isomers) → Ecoli rRNA inh = -4.5; Ecoli rRNA inh OD600 = 0.1; Ecoli rRNA inh RFP = 3.5
Listed for Cc1ccc(S(=O)(=O)Nc2ccc3c(c2)C(=O)N([C@H](C)CO)C[C@H](C)[C@H](CN(C)C(=O)Nc2cccc4ccccc24)OCCCC[C@H](C)O3)cc1 → Ecoli rRNA inh = -1.4; Ecoli rRNA inh OD600 = 12.2; Ecoli rRNA inh RFP = -0.3

(more compounds)
SMILES | Ecoli rRNA inh | Ecoli rRNA inh OD600 | Ecoli rRNA inh RFP
C/C=C/c1cnc2c(c1)C(=O)N([C@@H](C)CO)C[C@H](C)[C@H](CN(C)C(=O)Nc1c(C)noc1C)O2 | -0.7 | 9.4 | 0.3
CO[C@@H]1CN(C)C(=O)c2ccc(NC(=O)c3nc4ccccc4s3)cc2OC[C@H](C)N(Cc2cccnc2)C[C@@H]1C | -29.1 | -49.4 | -8.4
COc1cccc(-c2cnc3c(c2)C(=O)N([C@H](C)CO)C[C@@H](C)[C@H](CN(C)CC2CCCC2)O3)c1 | 6.1 | 15.3 | -1.5
CC(=O)N1Cc2cc(C(=O)NCc3cccc(F)c3)nc(-c3cccc(C4=CCCC4)c3)c2[C@@H]1CCO | -0.8 | 1.1 | 15.1
C[C@H]1CN([C@@H](C)CO)S(=O)(=O)c2ccc(C#CC(C)(C)O)cc2O[C@H]1CN(C)C(=O)CC1CC1 | -8.0 | -5.6 | -0.6
CNC[C@H]1OCCCC[C@@H](C)Oc2ccc(NC(=O)NC3CCCCC3)cc2C(=O)N([C@H](C)CO)C[C@@H]1C | 3.6 | 8.4 | 0.9
C[C@H](CO)N1C[C@H](C)[C@@H](CN(C)C(=O)Nc2ccc(F)cc2)Oc2ccc(NC(=O)NC3CCCCC3)cc2C1=O | -13.4 | -14.9 | -0.6
CCCNC(=O)Nc1ccc2c(c1)C(=O)N(C)C[C@@H](OC)[C@H](C)CN(C(=O)c1ccccc1F)[C@@H](C)CO2 | 2.3 | 1.7 | 0.1
COc1cccc(S(=O)(=O)Nc2ccc3c(c2)[C@@H]2C[C@H](CC(=O)NCc4ccc(Cl)cc4)O[C@H](CO)[C@@H]2O3)c1 | -7.3 | -3.3 | 1.6
CCCNC(=O)N(C)C[C@H]1Oc2cc(C#CCN(C)C)ccc2S(=O)(=O)N([C@@H](C)CO)C[C@@H]1C | -0.1 | 7.8 | -1.1
C[C@H](CO)N1C[C@H](C)[C@H](CN(C)C(=O)c2cnccn2)Oc2cc(C#CCC3CCCC3)ccc2S1(=O)=O | -4.3 | -16.0 | 13.3
Cc1noc(C)c1S(=O)(=O)Nc1ccc2c(c1)C(=O)N([C@@H](C)CO)C[C@@H](C)[C@H](CN(C)C(=O)Nc1ccc3c(c1)OCO3)OCCCC[C@H](C)O2 | -3.4 | -14.6 | -0.5
Cc1ccccc1S(=O)(=O)NC(=O)C1(C)CCN1C(=O)CCc1ccc(Cl)cc1Cl (stereo unspecified) | -14.5 | -5.5 | 2.9
CN1CCN(C(=O)c2cc3c(c(-c4cccc(-c5ccc(C#N)cc5)c4)n2)[C@H](CCO)N([S@@](=O)C(C)(C)C)C3)CC1 | -0.1 | 0.6 | 2.4
CCN1[C@H](C(=O)NCCCN(C)C)[C@@H](CO)[C@@H]2Cn3c(ccc(-c4cccc(F)c4)c3=O)[C@@H]21 | -3.8 | -1.9 | -0.9
CCCN1[C@H](C(=O)NCCCN2CCOCC2)[C@@H](CO)[C@@H]2Cn3c(ccc(-c4ccncc4)c3=O)[C@@H]21 | 3.9 | 5.4 | -0.6
CCC(=O)N1[C@H](CO)[C@H](c2ccc(-c3ccccc3)cc2)[C@H]1CN(CC)C(C)=O | -4.8 | 3.0 | 0.4

Not all compounds are listed (hit frequency here may not be typical).
